High-throughput results as filed in PubChem BioAssay.
Vaccinia mCherry: inhibitors of vaccinia virus infection (mCherry reporter signal) | Vaccinia virus mCherry reporter infection, fluorescence; about a quarter of the inactives have no number | hit rate 0.63% among 310,000 | Potency, µM (top dose mostly 36.5 µM), for the others: at the top dose activity change, negative = inhibition, usual class: inhibitors | AID 720579; active = well fitted inhibition curve with a large enough effect; inconclusive = small, poorly fitted or top-dose-only effect; inactive = no such curve, though single readings can be large or run the other way; tested in A549 cells; note: nearly all actives have a fitted effect of over 35% in size; inactives centre near -10
Vaccinia Venus: inhibitors of vaccinia virus (Venus reporter). Vaccinia virus Venus reporter expression, fluorescence. Potency, µM (series often up to 36.5 µM), inactives show at the top dose activity change, negative = inhibition, hits mostly inhibitors. hit rate 0.46% among 330,000; active means well fitted inhibition curve with a large enough effect; inconclusive means small, poorly fitted or top-dose-only effect; inactive means no such curve, though single readings can be large or run the other way; tested in A549 cells; note: nearly all actives have a fitted effect of over 30% in size; inactives centre near -10
* = called active by the depositor; i = inactive; u = inconclusive; x = no result given; & = joins results of further samples; [ ] = remark or other dose. % is set by controls: 0 for no effect and ±100 for the full control effect; potency is the fitted concentration of half-maximal effect.

Start of the listing, in advance (6 entries):
SMILES	Vaccinia mCherry	Vaccinia Venus
CN(C)Cc1ccccc1-c1nccc(NC2CC2)n1	i	41%[activator]
O=C(Nc1cccc2ccccc12)c1cnccn1	-13%	-16%
COc1cccc2c1OCC/C2=N\NC(=O)C(C)Oc1ccc([N+](=O)[O-])cc1 (stereo not drawn)	-6%	-11%
Cc1cc(NC(=O)CSc2nnc(C3COc4ccccc4O3)n2N)no1 (stereo not drawn)	1%	1%
COc1ccccc1CN1[C@@H](CC(=O)O)c2ccccc2S1(=O)=O	-16%	0%&-9%
CCOCCCNC(=O)C1CC(=O)N(CCc2ccc(C)cc2)C1 (stereo not drawn)	i	-1%

The whole of this part, from the first entry:
SMILES	Vaccinia mCherry	Vaccinia Venus
CN(C)Cc1ccccc1-c1nccc(NC2CC2)n1	i	41%[activator]
O=C(Nc1cccc2ccccc12)c1cnccn1	-13%	-16%
COc1cccc2c1OCC/C2=N\NC(=O)C(C)Oc1ccc([N+](=O)[O-])cc1 (stereo not drawn)	-6%	-11%
Cc1cc(NC(=O)CSc2nnc(C3COc4ccccc4O3)n2N)no1 (stereo not drawn)	1%	1%
COc1ccccc1CN1[C@@H](CC(=O)O)c2ccccc2S1(=O)=O	-16%	0%&-9%
CCOCCCNC(=O)C1CC(=O)N(CCc2ccc(C)cc2)C1 (stereo not drawn)	i	-1%
O=C(Cc1ccc(F)cc1)NC1CC(=O)N(c2ccccc2)C1 (stereo not drawn)	-5%[7.34 µM]	-11%[7.34 µM]
CC(=O)Nc1ccc(-c2csc(Nc3cc(C)ccn3)n2)cc1	-28%	-15%
CCc1nc2cccnc2n1-c1ccc(CC(=O)Nc2c(C)cccc2C)cc1	-12%	-8%
COc1ccc(CNC(=O)CC2N=C3c4ccccc4N=C(SCC(=O)Nc4ccc(C(C)C)cc4)N3C2=O)cc1 (stereo not drawn)	i	-10%
C=C(C)C1CCC(C)=C1COC(=O)Nc1ccccc1 (stereo not drawn)	-7%	-15%
C/C(=N\NC(=O)c1nnn(-c2nonc2N)c1-c1ccc(Cl)c(Cl)c1)c1ccncc1	i[7.34 µM]	u
Cn1cc(C(=O)N/N=C/c2ccc(Br)c([N+](=O)[O-])c2)c2ccccc21	-3%	-2%
Cc1ccc(S(=O)(=O)N2CCCCC2CCNC(=O)C(=O)NCc2ccccc2C)cc1 (stereo not drawn)	-18%	u
Cc1cc(-c2ccccc2)nc(N/N=C/c2ccc(O)cc2)n1	8.9µM*	-24%
CCOC(=O)C1CCN(CC(=O)Nc2cc(C)nn2-c2nc3ccccc3s2)CC1	-17%	-6%
COc1ccc(/C=C/C(=O)c2ccncc2)c2ccccc12	i	-15%
Cc1ccc(S(=O)(=O)NCCC(=O)NCCSc2ccc(Br)cc2)cc1	-1%	-12%
O=C(O)C(CCc1ccccc1)(Cc1ccccc1)C(=O)O	-11%	5%
Cc1ccc(CN(C(=O)COc2ccccc2Cl)c2ccccn2)o1	-7%	4%
CC(NS(=O)(=O)c1ccccc1)c1n[nH]c(=S)n1-c1ccccc1 (stereo not drawn)	-14%	-4%
COc1ccc(-c2cc(=O)c3cc(OCC(=O)OC(C)C)ccc3o2)cc1	-15%	-6%
O=C(Nc1ccc(Oc2cccnc2)cc1)C1CCCCN1Cc1ccc(CO)o1 (stereo not drawn)	-9%	-24%
O=C(NCCNC1CCC(c2ccccc2)CC1)c1cccs1 (stereo not drawn)	-5%	-2%
C[N+](C)=C1SCC(C)(/C=N/O)S1 (stereo not drawn)	i	-9%

Next part.
SMILES	Vaccinia mCherry	Vaccinia Venus
CC1CN(C(=O)CCC(=O)N2CCCCC2)c2ccccc2O1 (stereo not drawn)	30%[activator]	2%
Cc1c(CCO)c(=O)n(-c2ccccc2)n1S(=O)(=O)c1ccc(F)cc1	u	-27%
CCN1C(=O)CSC1=Nc1ccc(Cl)c(Cl)c1	-8%	-11%
CN(CC(=O)Nc1ccc(C(N)=O)cc1)S(=O)(=O)c1ccc2c(c1)OCCO2	i	-6%
COc1cc(C(=O)NCCC(=O)N2CCN(C)CC2)cc(OC)c1OC	-3%	-3%
Cc1ccc(C)c(Oc2c(C(F)(F)F)oc3c(CN4CCN(C)CC4)c(O)ccc3c2=O)c1	-20%	-10%
Cn1cc[n+](C)c1P(=S)(c1ccccc1)c1ccccc1	i	-6%
Cc1[nH]n(-c2ccccc2)c(=O)c1N=Nc1ccc(Cl)cc1	-12%	3%
CN(CC1CCOCC1)C(=O)CC1C(=O)NCCN1CC1CCCCC1 (stereo not drawn)	0%	3%
O=C(Nc1ccc(F)c(Cl)c1)Nc1c[nH]c(=O)[nH]c1=O	-2%	6%
COc1ccc(S(=O)(=O)NC(=O)C2(C)CCN2C(=O)c2ccc(C(F)(F)F)nc2C)cc1 (stereo not drawn)	49%[activator]	-3%
O=C(CSc1nnc(-c2ccccc2)o1)N1CCCCC1	2%	9%
O=C(COc1ccccc1[N+](=O)[O-])Nc1cccnc1	i	-5%
CC(=O)NCCc1nc2cc(NC(=O)c3ccccc3)ccc2n1C	i	-11%
CCOC(=O)c1c(NC(=O)c2cc(C(C)C)on2)sc(C)c1C	-9%	3%
O=C(NCCN1CCOCC1)c1cc2ccccc2[nH]1	x	-18%
CCOC(=O)c1sc(NC(=O)CSC(=S)N2CCN(C)CC2)nc1C	u	-28%
Cn1c(=O)n(C)c2cc(CNCCc3ccc(F)cc3)ccc21	-4%	-3%
CCCS(=O)(=O)N1CCCC(C(=O)N2CCC3(CC2)OCCO3)C1 (stereo not drawn)	x	-15%
CCCCc1ccc(S(=O)(=O)NCCCN2CCCC2=O)cc1	-1%	-20%
Cc1ccc(Cl)cc1N1CCN(C(=O)CCS(=O)(=O)c2cccc3nonc23)CC1	-21%	u
Cc1ccc(/C=C/c2ccc(=O)n(Cc3ccc(F)cc3)n2)cc1	i	3%
COc1cc2nc(CSc3ncn[nH]3)[nH]c(=O)c2cc1OC	i	1%
NC(=O)CS(=O)C(c1ccccc1)c1ccccc1 (stereo not drawn)	i	-4%
COc1ccc(NC(=O)Cn2c(-c3ccccc3)cc(C(C)=O)c2C)c(OC)c1	i	-9%

Random excerpt: 2 compounds from above, in no set order.
SMILES	Vaccinia mCherry	Vaccinia Venus
CCc1nc2cccnc2n1-c1ccc(CC(=O)Nc2c(C)cccc2C)cc1	-12%	-8%
COc1ccccc1CN1[C@@H](CC(=O)O)c2ccccc2S1(=O)=O	-16%	0%&-9%

Three entries already listed, sorted by count of non-hydrogen atoms, lowest first.
SMILES	Vaccinia mCherry	Vaccinia Venus
Cn1cc[n+](C)c1P(=S)(c1ccccc1)c1ccccc1	i	-6%
CCOC(=O)c1c(NC(=O)c2cc(C(C)C)on2)sc(C)c1C	-9%	3%
CCOC(=O)c1sc(NC(=O)CSC(=S)N2CCN(C)CC2)nc1C	u	-28%

Next section
SMILES	Vaccinia mCherry	Vaccinia Venus
COc1ccc(NC(=O)CSC2=C(C#N)C(c3ccco3)C(C(=O)Nc3nc4ccccc4s3)=C(C)N2)cc1 (stereo not drawn)	x	-26%
CCCCCCCCN1C(=O)[C@H](CC(=O)NCCC(C)C)C[C@@]2(C(=O)OC)CC(C)(C)CC=C12	-8%	-7%
COc1cc2nc(NC(=O)c3ccc(Cl)cc3)[nH]c(=O)c2cc1OC	-15%	-10%
CCOc1ccc(Br)cc1CSC(=N)N	-27%	-23%
O=C(CCn1cnc2ccccc2c1=O)NCc1ccccc1Cl	-7%	3%
CCCCC(OC(=O)c1cc2occc2n1C)C(=O)NCC1CCCO1 (stereo not drawn)	-4%	-11%
CCOc1ccc(S(=O)(=O)NCc2ccccn2)c(C)c1C	i	-13%
O=C(N/N=C/c1cn(CCOc2ccccc2)c2ccccc12)c1ccncc1	i	-8%
NNc1nc2sc3c(c2c(=O)n1Cc1ccccc1)CCC3	-1%[7.34 µM]	-16%[7.34 µM]
Cc1cc(C)cc(N(C(=O)c2cc3ccccc3oc2=O)C2C=CS(=O)(=O)C2)c1 (stereo not drawn)	-26%	-19%
Cc1ccc(C)c(N2CCN(CCCNC(=O)Cn3ncc4c([nH]c5ccccc54)c3=O)CC2)c1	-5%	-10%
O=C(CN1CCOCC1)Nc1ccccc1Sc1ccc(Cl)cc1	u	-14%
CCCCn1c(=O)[nH]c(=O)c2c1nc(-c1cc(Cl)c(OC)c(OC)c1)n2C	-7%	1%
Nc1nc(N)nc(Cc2ccccc2O)n1	-3%	-7%
COC(=O)c1c(NC(=O)C2C3C=CC(CC3)C2C(=O)O)sc(C)c1C (stereo not drawn)	-2%	-8%
Cc1nc2ccccc2c(=O)n1NC(=O)c1ccc([N+](=O)[O-])cc1Cl	1%	1%
O=C(CSc1nc(C2CCCCC2)n(-c2ccccc2)n1)NCC(F)(F)F	-19%	-8%
FC(F)(F)c1ccccc1NC1=NCCCS1	13%	1%
CC(C)[C@H](NC(=O)c1ccc(Cl)cc1)C(=O)OCC(=O)N1CCN(c2ccccc2)CC1	-10%	-16%
O=C(Nc1ccc(Cl)c(Cl)c1)N1CCC(N2CCCCC2)CC1	x	u
COc1ccc(-c2nc3ccccc3s2)cc1NC(=O)COc1ccc(C)cc1	-26%	-14%
CC(C)COC(=O)N1CCCCC1c1cc(C(=O)NC(C)C)no1 (stereo not drawn)	37%[activator]	1%
C[C@@H]1CN(Cc2ccc3c(c2)CN(C(=O)CN2CCOc4ccccc4C2)CCO3)C[C@H](C)O1	-9%	1%
CCOC(=O)c1cnc(SCC(=O)NCc2ccco2)nc1N	-7%	-11%
Cc1cc(C)cc(N2CCCn3c2nc2c3c(=O)n(CCN3CCOCC3)c(=O)n2C)c1	x	-29%

Further results follow:
SMILES	Vaccinia mCherry	Vaccinia Venus
O=C(N/N=C/C=C/c1ccccc1)c1cnccn1	u	u
CCCCOc1ccc(C(=O)NCCc2sc3nc(-c4ccc(OC)cc4)nn3c2C)cc1	-10%	-8%
Cc1ccc(CSc2nnc(-c3cccc(S(=O)(=O)N4CCOCC4)c3)n2C2CCCC2)cc1	-20%	-27%
COc1nc2ccc(C)cc2cc1-c1noc(-c2cccnc2)n1	x	22%
CCn1c(SCc2ccccc2)nc2ccccc2c1=O	5%	3%
O=C(O)CCC(=O)N1CCc2cc(S(=O)(=O)NCc3ccc(Cl)cc3)ccc21	i	-20%
CCn1c(NCc2ccc3c(c2)OCO3)nc2ccccc21	-5%	u
O=C(NCc1ccncc1)c1nc(-c2cccs2)no1	-10%	9%
O=[N+]([O-])c1cccnc1SCc1c(F)cccc1Cl	-25%	-13%
COc1ccc(N=Cc2cc(Cl)ccc2O)cc1Cl	-5%	-9%
Cc1ccc(S(=O)(=O)N(C)c2ccc(NS(C)(=O)=O)cc2)cc1	x	21%
O=C(Nc1ncccc1O)c1cccc(S(=O)(=O)N2CCCc3ccccc32)c1	-11%	-10%
Cn1c(=O)c2c(SCC(=O)c3ccccc3)nc(C3CC3)nc2n(C)c1=O	-11%	-9%
O=C(/C=C/c1cccc(C(F)(F)F)c1)NNC(=O)c1ccncc1	u	-14%
Cc1ccc(CNC(=O)Cc2ccc(-c3ccccc3)cc2)cc1	u	u
CCN(CC)Cc1c(NC(=O)c2ccc(OC)cc2)sc2c1CCCC2	-8%	-9%
Cc1ccc(OCCOc2cccc(Br)c2)c([N+](=O)[O-])n1	-10%	-18%
O=C1c2cccc3cc([N+](=O)[O-])cc(c23)C(=O)N1CCN1CCCC1	0.32µM*	u
Cc1ccc(Sc2ccc(N)cn2)cc1	-7%	-6%
O=C(Nc1ccccc1C(=O)NC(Cc1c[nH]c2ccccc12)C(=O)O)c1ccco1 (stereo not drawn)	x	-22%
CCOc1ccc(NC(=O)CN(C)C(=O)COc2cccc(CC)c2)cc1OCC	-11%	-26%
Cn1cc(/C=C(\C#N)C(=O)Nc2ccccc2O)c2ccccc21	u	-25%
CN(Cc1ccccc1)C(=O)COC(=O)CCNC(=O)c1ccccc1Cl	-9%	-7%
COc1ccc(-c2nc3ccccc3o2)cc1NC(=O)c1ccc(-c2cccc(Cl)c2C)o1	-6%	3%
COc1ccc(C2CC(c3ccccc3)=NN2C(=O)COC(=O)c2cccnc2Cl)cc1 (stereo not drawn)	i	-2%

The results go on:
SMILES	Vaccinia mCherry	Vaccinia Venus
Cc1cc(O)c(C(c2ccc(F)cc2)N2CCN(c3ccccc3)CC2)c(=O)n1Cc1ccco1 (stereo not drawn)	-11%	-12%
Cc1c(NC(=O)C2CCCN2S(=O)(=O)c2ccccc2)c(=O)n(-c2ccccc2)n1C (stereo not drawn)	x	0%
COC(=O)c1ccc(C)c(NC(=O)CCSc2ccccc2)c1	-12%	-29%
O=C(Nc1nccs1)C(F)(F)C(F)(F)C(F)(F)C(=O)Nc1nccs1	-12%	2%
Cc1sc2c3ccsc3ccc2[n+]1C	-15%	-9%
NC(=O)CC(NC(=O)c1ccccc1)c1ccc(NC2CCCCC2)c([N+](=O)[O-])c1 (stereo not drawn)	-11%	-26%
CCOC(=O)C1CCN(C(=O)CCCn2nc(CC)n3c(cc4occc43)c2=O)CC1	-15%	-7%
CS(=O)(=O)N1CCC(C(=O)Nc2cccc(Cl)c2)CC1	-2%	3%
O=c1c2nnn(-c3ccccc3)c2ncn1C/C=C/c1ccccc1	-11%	-28%
CCN(CC)c1ccc(/C=N/N(c2ccccc2)c2ccccc2)c(O)c1	-3%	14%
O=C(CNC(=O)c1cncc(Br)c1)Nc1ccc(F)c(F)c1F	i	-10%
CN(CC(=O)Nc1ccccc1Br)C(=O)CN1CCN(Cc2cccc(Cl)c2)CC1	-7%	-14%
N#Cc1c(C(F)(F)F)cc(-c2cccs2)nc1SCc1ccc(F)cc1	i	-11%
CC(C)(Oc1ccc(Cl)cc1)C(=O)NCC1CCCO1 (stereo not drawn)	-9%	-4%
